Screens: PubChem, National Center for Advancing Translational Sciences (NCATS)
ClpP mod: qHTS Assay for Activators of ClpP | ATP-dependent Clp protease proteolytic subunit (Bacillus subtilis (strain 168)), P80244 | hit rate 1.9% among 340,000 | purified B. subtilis ClpP, FRET peptide cleavage, 20 min | Potency, µM (highest dose often 57.5 µM), inactives show at the top dose activity change, negative = active; active = well fitted falling curve with a large enough effect; inconclusive = small, poorly fitted or top-dose-only effect; inactive = no such curve, though single readings can be large or run the other way; further: potency means the concentration at half of the fitted maximal effect; the source files actives as falling curves though it sought activators and does not explain the sign; nearly all actives have a fitted effect of over 65% in size; many hits overshoot -100%
Target sequence (P80244 whole entry, looked up): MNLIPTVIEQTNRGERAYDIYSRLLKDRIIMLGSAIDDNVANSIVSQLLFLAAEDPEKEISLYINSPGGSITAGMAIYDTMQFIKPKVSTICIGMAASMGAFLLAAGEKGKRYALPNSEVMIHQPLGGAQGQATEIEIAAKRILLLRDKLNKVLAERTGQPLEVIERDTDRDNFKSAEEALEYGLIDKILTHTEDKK
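ClpP 10 microg/mL final, pH 8 Tris/KCl buffer with BSA, glycerol, Tween-20; compound pinned in; FRET-FV substrate; RT 20 min; Ex320/Em430; ΔFRET vs ADEP 5.8 microM, DMSO, no enzyme.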
Sfp inh: inhibitors of Bacillus subtilis Sfp phosphopantetheinyl transferase | Potency, µM, inactives show max response, negative = inhibition, actives largely listed as inhibitors | AID 1490 | hit rate 3.5% among 310,000 | Q9F4F7 | Biochemical Sfp PPTase activity, qHTS; active means well fitted inhibition curve with a large enough effect; inconclusive means small, poorly fitted or top-dose-only effect, or another doubt; inactive means no such curve, though single readings can be large or run the other way;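 further: the enzyme is Sfp with the accession as filed and its product quenches rhodamine fluorescence; potency means the concentration at half of the fitted maximal effect; 0% = enzyme reaction without inhibitor and -100% = no enzyme wells; top concentration of the series not given in the record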
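With Hepes-Na pH 7.6 buffer containing 10 mM MgCl2, Sfp (15 nM) modified BHQ-2-YbbR (12.5 uM) using rhodamine-CoA (5 uM). Two reads 30 minutes apart at 525/598 nm yielded each well's rate.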
TRPV1 potentiator: human TRPV1 potentiation; Q8NER1; TRPV1-expressing cells, Fluo-8 calcium influx, capsaicin EC20 potentiation; host cell line not named in the record; control for the full effect not named in the record; potentiation, % at 8.33 µM; hit rate 0.02% among 320,000; AID 540277; active means potentiation above 80%; inconclusive means 30% to 80%; inactive means below 30%; further: 0% is about no effect
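Cells expressing TRPV1 were dye-loaded with Fluo-8 and read kinetically: 10 s baseline, 3 min after compound (agonist portion), then 2 min after EC20 capsaicin (allosteric enhancer portion). Calcium-bound dye fluorescence at 480/520 nm.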
TRPML1 agonist: human mucolipin-1 channel agonism. Q9GZU1. TRPML1-expressing cells, Ca2+ dye fluorescence, FDSS; host cell line not named in the record; reference of the full effect not given here. activation, % (test concentration not listed). hit rate 0.12% among 410,000; in the data active = activation above about 50%; inconclusive = about 30% to 50%; inactive = below about 30%; further: 0% is about no effect; the text of the record puts the active cut at 80%
Target sequence (Q9GZU1 whole entry, looked up): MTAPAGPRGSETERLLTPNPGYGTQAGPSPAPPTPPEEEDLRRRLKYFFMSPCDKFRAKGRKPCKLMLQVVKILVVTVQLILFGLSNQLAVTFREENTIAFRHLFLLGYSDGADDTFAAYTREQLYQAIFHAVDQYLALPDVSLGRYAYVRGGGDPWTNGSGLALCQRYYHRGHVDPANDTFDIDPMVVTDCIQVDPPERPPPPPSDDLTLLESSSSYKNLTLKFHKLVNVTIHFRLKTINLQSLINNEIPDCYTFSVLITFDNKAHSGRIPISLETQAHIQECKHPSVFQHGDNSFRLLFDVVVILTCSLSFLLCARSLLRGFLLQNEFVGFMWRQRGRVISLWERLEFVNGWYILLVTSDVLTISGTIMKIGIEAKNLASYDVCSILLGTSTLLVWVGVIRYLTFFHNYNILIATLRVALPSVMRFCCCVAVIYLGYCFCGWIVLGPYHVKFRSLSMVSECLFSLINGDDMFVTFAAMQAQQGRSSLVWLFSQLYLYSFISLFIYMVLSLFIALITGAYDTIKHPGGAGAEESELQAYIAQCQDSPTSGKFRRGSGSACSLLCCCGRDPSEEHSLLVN
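Calcium fluorescence on an FDSS kinetic reader gave the read-out. Tet-induced TRPML1-DL cells were plated overnight, dye-loaded (Ca8 with quencher, 45-90 min, room temperature, dark), then read 110 s after compound addition, and again 110 s after 4uM final 54-4 (EC80).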
Menin-MLL FL inh: displaces fluorescein MLL peptide from human menin; Fluorescence polarization, fluorescein-MLL peptide displacement from menin; FP activity change, % at 61.4 µM; 290,000 tested, under 10 active; inconclusive = falling polarisation curve, or a change in total fluorescence; inactive = total fluorescence flat and polarisation flat or rising; no compound was filed as active; the % refers to the polarisation; negative = inhibition;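 further: % of control where 0% means no effect; inhibitors lower the polarisation; unlabelled MLL peptide was the positive control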
TRPML1 blocker: inhibitors of human TRPML1 channel; Q9GZU1; hit rate 0.02% among 390,000; TRPML1-inducible cells, Ca2+ dye fluorescence, FDSS; hits give low values; inhibition of EC80 agonist-evoked calcium signal; AID 624415; activity change, negative = inhibition, % (no concentration beside the values); in the data active means activity change below about -50%; inconclusive means about -30% to -50%; inactive means above about -30%;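 further: stimulus is agonist 54-4 at its EC80 concentration; on the % scale 0 is the no-effect control and ±100 the full control effect; compound concentration not given in the record; the text of the record puts the active cut at -80%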
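Calcium fluorescence in TRPML1-DL cells induced overnight with Tet: a 110 s read after compound pin addition, then a 110 s antagonist read after challenge with 54-4 at 4 uM final (EC80).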
PINK1 modulator: PINK1 expression modulation; hit rate 0.2% among 410,000; Potency, µM (doses to about 76.6 µM), for inactives: at the top dose activation (PINK1 increase), actives largely listed as activators; AID 624263; PINK1 immunofluorescence, high-content cytometry, 24 h; active = well fitted activation curve with a large enough effect; inconclusive = small, poorly fitted or top-dose-only effect; inactive = flat fitted curve, though single readings scatter; cell line not stated here;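 further: potency means the concentration at half of the fitted maximal effect; % of control where 0% means no effect; nearly all actives have a fitted effect of over 65% in size; a mitochondrial uncoupler was the plate control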
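Compound titrations (5 concentrations, 24 h) on a stable cell line; DMSO and CCCP controls. Endpoint: fixed-cell PINK1 immunofluorescence with mitochondrial, cell and nuclear markers, scanned by microplate cytometer.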
Active calls of the source: *; ? = inconclusive; . = not tested or not shown; & = joins results of further samples; [ ] = another dose, or the depositor's remark.

SMILES | ClpP mod | Sfp inh | TRPV1 potentiator | TRPML1 agonist | Menin-MLL FL inh | TRPML1 blocker | PINK1 modulator
CN(C(=O)c1cccnc1)c1nnc(-c2ccccn2)s1 | . | -5% | -2 | -0.5 | -9.2 | 2 | -1.6%
CCN1C(=O)N[C@@H](c2ccccc2)C(C(=O)OC)=C1C | -0.5% | -5% | . | 0.6 | 0.4[11.7 µM] | 5 | 0.5%
COc1ccccc1-c1cc(C(=O)NCCN2CCOCC2)no1 | ? | 16% | -10 | -0.2 | -2.8 | -6 | 15%[38.3 µM]
CCN(CC(=O)NCc1cccs1)C(=O)c1cccc(S(=O)(=O)Nc2ccc(F)cc2)c1 | 1.3% | . | . | 0.6 | . | -11 | 0.9%
CCN1CCN(c2ccc(S(=O)(=O)N3CCCC3)cn2)CC1 | . | 7% | 2 | 0.1 | 0.6 | -5 | -1.7%
CC1CCc2cc(F)ccc2N1S(=O)(=O)c1ccc(F)cc1 (configuration not stated) | . | 8% | -10 | 0.1 | -1.5 | 60 | 8.0%
Cn1cc(C(=O)N/N=C/C=C/c2ccccc2)ccc1=O | -2.9% | 3% | -12 | 0.6 | 4.8 | -24 | 1.8%
CCOC(=O)C1(Cc2cccc(F)c2)CCN(C(=O)c2cnc(C)cn2)CC1 | . | -13% | -21 | 0.4 | 1.0 | 4 | -1.1%
COc1ccc(-n2c(SCc3nc(-c4ccc(C)cc4)no3)nnc2-c2ccncc2)cc1 | -0.8% | . | . | 0.8 | . | 0 | -0.5%
Cc1ncc([N+](=O)[O-])n1CC(=O)Nc1ccc(F)cc1 | 0.0% | 4% | 0 | -0.2 | -2.2 | 4 | 1.6%
CCOc1ccc(NC(=S)N(C)C)cc1 | . | -3% | . | -0.9 | 0.9 | -16 | -2.0%
O=C(NCCc1ccc(Cl)cc1)c1ccc(Cn2c(=O)c3cccn3c3cccnc32)cc1 | 4.7% | . | . | 1.6 | . | -19 | 8.8%
COc1cc(OC)cc(C(=O)NNC(=O)CN2C(=O)NC3(CCCC3)C2=O)c1 | -2.0% | . | 17 | -0.2 | . | 2 | 4.3%
O=C(COc1ccc(Cl)cc1)NCc1nnc(SCC(=O)N2CCCC2)o1 | 0.1% | 15% | 24 | 0.2 | -1.1 | 4 | 0.1%
CC(C)CNC(=O)c1cccc2c(-c3cccnc3)coc12 | -19% | . | . | -0.9 | . | 49 | -1.1%
COC(=O)C1=C(C)N(C)C(=S)N(C)C1c1ccc(OC)cc1 (configuration not stated) | . | 5% | -7 | -0.1 | -2.2 | -2 | 3.0%
CC(=O)c1c(COC(=O)c2ccc(F)cc2)nc2ccccc2[n+]1[O-] | . | 6% | . | -0.2 | 2.6 | 5 | 0.2%
COC(=O)c1ccc(NC(=O)CSc2nc3ncccc3[nH]2)cc1 | -6.0% | 11% | -18 | 0.3 | -1.8 | -6 | -2.9%
O=C(Nc1ccc(C(=O)O)cc1)/C(=C\c1ccco1)NC(=O)c1ccccc1Cl | . | 11% | -2 | -0.2 | -11 | -3 | -1.3%
CCNC(=O)c1ccc(CSc2nc3ccccc3s2)cc1 | -0.5% | 36%[activator] | 3 | 1.9 | . | -7 | 1.6%
O=C(Cn1nc(C(F)(F)F)c2c1CCC2)Nc1ccccc1C(F)(F)F | -0.4% | 18% | -10 | 0.9 | -3.6 | -5 | -1.9%
CCC1CCC(C(=O)NC(C(=O)NCCN(CC(C)C)CC(C)C)C(C)C)CC1 (configuration not stated) | -0.3% | . | . | -0.5 | . | 20 | 1.2%
O=C(NC1CCCC1)C1CC(O)CN1C(=O)Nc1ccccc1 (configuration not stated) | . | 4% | 16 | 3.6 | -0.8 | 5 | -0.3%
O=C(CCN1C(=O)COc2ccccc21)NCc1cccs1 | -1.2% | 13% | -8 | 0.2 | 1.1 | 7 | -3.7%[38.3 µM]
O=C(c1ccc(Cl)cc1)N1CCC(N2CCC(C(=O)N3CCOCC3)CC2)CC1 | -3.1% | 12% | 12 | 0.0 | . | 42 | -0.1%
SMILES | ClpP mod | Sfp inh | TRPV1 potentiator | TRPML1 agonist | Menin-MLL FL inh | TRPML1 blocker | PINK1 modulator
COc1ccc(Cl)cc1C(=O)NNC(=O)c1n[nH]c2ccccc12 | -5.5% | . | 2 | -1.3 | . | 5 | 3.1%
COc1cccc(N(CC(=O)O)S(=O)(=O)c2ccccc2)c1 | -0.8% | -3% | -24 | -1.0 | 2.2 | 2 | -0.1%
C#C[C@]1(O)CC[C@H]2[C@@H]3CCc4cc(OC5CCCC5)ccc4[C@H]3CC[C@@]21C | -3.1% | 2%&22% | 10 | -0.1 | 4.4&-1.7 | 79 | 0.0%
O=C1CSC(=NC2CCCCC2)N1 | -2.6% | -5% | 2 | 0.1 | 0.6 | 27 | 0.3%
C[C@H](CO)N1C[C@H](C)[C@@H](CN(C)S(=O)(=O)c2cn(C)cn2)OCc2cnnn2CCCC1=O | -0.2% | . | . | 0.0 | . | -5 | -0.1%
O=C(N/N=C/c1ccco1)c1cc2ccccc2o1 | -0.7% | -1% | -20 | -0.3 | 2.8 | -5 | 2.2%
O=C(NCC(=O)N1CCN(c2ncccn2)CC1)c1cccs1 | -11% | 8% | -2 | -0.1 | -3.1 | -12 | -1.1%
CCOC(=O)C1CCCN(C(=O)c2ccc(NC(=O)CC3SC(N4CCCC4)=NC3=O)cc2)C1 (configuration not stated) | . | . | 9 | 0.7 | . | 0 | -3.1%
Cc1ccsc1CCN1C(=O)N(c2ccccc2)C(=O)C1CC(=O)Nc1ccc(Cl)cc1 (configuration not stated) | -4.0% | . | . | 2.7 | . | -7 | 4.4%
CCOC(=O)C1=C(C)C(c2cccc(Oc3ccccc3)c2)NC(=S)N1 (configuration not stated) | . | -10% | 13 | 5.4 | 5.9 | 18 | 1.5%
Cn1c(=O)c2c(nc(CN3CCN(c4ccccc4F)CC3)n2Cc2ccc(F)cc2)n(C)c1=O | -0.8% | . | . | 0.1 | . | 7 | 2.1%
CN(C)c1nccc(NCc2ccccc2)c1C#N | . | 14% | 12 | -0.3 | -4.9 | 24 | 13%
O=C(NCCCN1CCOCC1)/C(=C/c1ccc(F)cc1)NC(=O)c1ccccc1 | . | 21% | -3 | -1.4 | 0.8 | 8 | 0.5%
CCOc1ccc(CC(=O)NCC(c2cccs2)S(=O)(=O)c2ccc(F)c(C)c2)cc1 (configuration not stated) | -0.9% | . | . | 1.7 | . | 0 | -0.5%
Cc1cc(NC(=O)C2CCCCC2C(=O)O)no1 (configuration not stated) | -0.2% | 14% | -4 | -0.5 | -2.2 | -5 | -2.1%
C/C(=N\NC(=O)C1CC1)c1ccc(N2CCOCC2)cc1 | . | 10% | 9 | -0.1 | -0.1 | 6 | -0.5%
CCc1ccc(CNC(=O)C2CCN(c3nc4ccccc4nc3C(F)(F)F)CC2)cc1 | 0.6% | . | . | -1.0 | . | 38 | 3.2%
CSc1ncccc1C(=O)OCC(=O)NC12CC3CC(CC(C3)C1)C2 | -5.3% | . | . | 2.1 | . | 19 | 2.0%
COc1cc(OC)c(NC(=O)c2ccc(F)cc2)cc1Cl | . | -3% | 4 | 3.5 | 6.1 | 18 | -1.7%
C[n+]1c2n(c3ccccc31)N=C(c1ccc(-c3ccccc3)cc1)CS2 | -1.1% | -16% | -11 | 4.5 | -3.3 | 9 | 13µM*
CN(C)S(=O)(=O)c1ccc(N2CCCC2)c(C(=O)N2CCN(S(=O)(=O)c3cccc(F)c3)CC2)c1 | . | . | -3 | 2.0 | . | -11 | -0.3%
COCCNS(=O)(=O)c1ccc(OCC(=O)OC)c(Cl)c1 | -1.1% | 21% | 2 | -0.5 | -0.1 | 8 | 3.1%[38.3 µM]
CSC1=NC2(CCN(C(=O)NC3CCCCC3)CC2)N=C1c1ccc(C)c(C)c1 | 0.3% | . | . | 2.3 | . | -12 | -0.2%
Cn1c(=O)c(=O)n(C)c2cc(S(=O)(=O)Nc3ccc(OC(F)(F)F)cc3)ccc21 | -4.0% | 1% | -13 | 0.9 | -1.6 | 4 | -4.4%[38.3 µM]
Cc1nn(Cc2ccccc2Cl)c(C)c1C(=O)NCCN1C(=O)S/C(=C\c2ccccc2)C1=O | . | -21% | 2 | 4.9 | 5.1 | 12 | 2.0%
SMILES | ClpP mod | Sfp inh | TRPV1 potentiator | TRPML1 agonist | Menin-MLL FL inh | TRPML1 blocker | PINK1 modulator
COc1ccccc1NS(=O)(=O)c1ccc(C(=O)NCC2(N(C)C)CCCCC2)cc1 | 0.5% | . | 10 | 0.3 | . | 34 | -1.0%
CC(C)C(=O)N1CCN(c2ccccc2NC(=O)c2ccc(C#N)cc2F)CC1 | . | 6% | -23 | -1.0 | 6.9 | 12 | -1.0%
CCOC(=O)C1=C(Nc2ccc(Cl)cc2)OCC1=O | -2.4% | 9% | -24 | -0.2 | 2.5 | 2 | 0.8%
COc1ccc(CC(=O)Nc2c(C(=O)N3CCN(c4ccccc4OC)CC3)oc3ccccc23)cc1OC | 0.1% | -5% | -13 | -0.1 | . | -2 | 1.2%
CCOc1cc(/C=C/c2nc3ccccc3c(=O)[nH]2)cc(Br)c1OC | . | -6% | ? | . | ? | . | .
CCOC(=O)c1cc(CC)sc1/N=C/C1C(=O)CCCC1=O | . | -13% | -10 | 1.6 | 3.7 | -3 | -0.7%
OC(CCCC(O)c1ccccc1)c1ccccc1 (configuration not stated) | -1.0% | . | . | 0.6 | . | -4 | 1.0%
Cc1ccc(C)c(N(CC(=O)NC2CCCCC2)C(=O)CNC(=O)c2ccco2)c1 | 1.5% | 0% | 22 | -0.5 | -0.6 | 19 | 4.8%
Cn1c(=O)[nH]c(=O)c2c1nc(N1CCOCC1)n2CC(=O)c1ccccc1 | . | 3% | 13 | 1.0 | 1.8 | -4 | 0.4%
CCOc1ccc2nc(N/C(N)=N/S(C)(=O)=O)nc(C)c2c1 | 3.0% | 15% | 2 | 1.7 | 1.3 | -10 | 0.4%
CCc1ccc(N2CC(C(=O)NCc3ccco3)CC2=O)cc1 (configuration not stated) | 0.0% | 6% | 17 | -0.6 | -0.4 | 2 | -1.6%
CCc1ccccc1NC(=O)CCC(=O)Nc1nnc(C(C)C)s1 | -2.6% | 10% | ? | -0.8 | . | 4 | -0.1%
